VDR inh – inhibitors of human vitamin D receptor | VDR-SRC2-3 peptide fluorescence polarization, 2 h | Potency, µM, for the others: max response, negative = inhibition, actives largely listed as inhibitors | actives 0.93% (n = 400,000); active = well fitted inhibition curve with a large enough effect; inconclusive = small, poorly fitted or top-dose-only effect, or another doubt; inactive = no such curve, though single readings can be large or run the other way; also: series mostly up to about 120 µM
Target sequence (P11473 whole entry, looked up): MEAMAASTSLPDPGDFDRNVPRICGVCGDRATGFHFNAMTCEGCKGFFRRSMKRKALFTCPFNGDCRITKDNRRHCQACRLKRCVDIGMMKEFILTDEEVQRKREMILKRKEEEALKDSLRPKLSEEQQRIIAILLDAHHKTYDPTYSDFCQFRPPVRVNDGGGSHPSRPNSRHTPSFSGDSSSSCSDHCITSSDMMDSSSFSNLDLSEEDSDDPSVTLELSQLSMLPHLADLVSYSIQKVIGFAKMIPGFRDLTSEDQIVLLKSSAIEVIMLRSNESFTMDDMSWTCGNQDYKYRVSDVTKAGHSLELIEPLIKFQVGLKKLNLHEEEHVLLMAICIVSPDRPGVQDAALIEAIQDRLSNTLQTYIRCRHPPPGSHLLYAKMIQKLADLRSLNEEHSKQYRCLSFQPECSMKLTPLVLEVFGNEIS
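Inhibition of the VDR/SRC2-3 peptide interaction is quantified by fluorescence polarization. Compounds (23 nl, pintool) incubate with the reagents for 2 hours at ambient room temperature.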
* hit, by the source's call; ? = inconclusive; & = joins results of further samples. % is scaled to controls: 0 for no effect and ±100 for the full control effect; potency is read from the fitted curve at half-maximal effect. Only part of the results is shown; count on the stated rates, not on these rows.

SMILES	VDR inh
CCOC(=O)c1sc(=NC(=O)c2cccc(Br)c2)n(C)c1C	2%
CCC(C)Sc1nnc(NS(=O)(=O)Cc2ccccc2)s1 (stereo not drawn)	-4%
COc1ccc(CNC(=O)c2ccc3ccccc3n2)cc1	-8%
CC(=O)c1ccc(OCCOc2ccc(C#N)cc2)cc1	5%
Nc1ncnc2c1cnn2-c1ccccc1	4%&-16%
Cc1ccc(CNC(=O)NC2CCCCC2)cc1	-7%
O=C(NCc1ccco1)/C(=C\c1cccs1)NC(=O)c1ccccc1	-2%
CCOc1cccc(C=NNc2ccc(S(=O)(=O)Nc3ccccc3C(=O)O)cc2[N+](=O)[O-])c1O	-9%
Cc1onc(-c2ccccc2)c1C(=O)NCc1cccnc1	-14%
COc1ccc2ccccc2c1-c1sc(Nc2ccccc2)n[n+]1-c1ccc(F)cc1	-19%
Cc1ccc(-n2c(Cc3ccccc3)nnc2SCC(=O)NNC(=O)Cc2ccccc2)cc1	14%
NC(=O)CN1CCN(c2cccc(Cl)c2)CC1	-2%
CCOC(=O)N1N=C(c2ccc(C)cc2)CC1(O)C(F)(F)F (stereo not drawn)	5%
COc1ccc(OC)c(-c2cc(C(=O)Nc3ccc(C)c(C)c3)no2)c1	-3%
CCC(C)N(C(=O)CSc1nncn1C)C1CCS(=O)(=O)C1 (stereo not drawn)	9%
CCOc1ccc(-n2cccc2C=O)cc1	-20%
CC(=O)c1cccc(NS(=O)(=O)c2ccc(-c3cc(C)no3)s2)c1	13%
COc1ccc(S(=O)(=O)N2CCC(C(=O)NCC3CCCO3)CC2)cc1C (stereo not drawn)	-18%
O=C(CSc1nnc(-c2ccc([N+](=O)[O-])cc2)o1)Nc1ccccc1	6%
COC(=O)c1ccc(CN(c2ccccn2)S(=O)(=O)c2ccccc2)cc1	18%
Cc1cccc(S(=O)(=O)c2c(N)n(/N=C/c3ccccc3)c3nc4ccccc4nc23)c1	-5%
CCN(CC)CC(C)CNC(=O)CN1C(=O)CSc2ccc(S(=O)(=O)N3CCOCC3)cc21 (stereo not drawn)	4%&7%
CCOc1ccc(NC(=O)Cc2ccc(S(=O)(=O)N3CCOCC3)s2)cc1OCC	6%
CCC(C)NC(=O)CNC(=S)N(Cc1ccccc1F)C1CCCCC1 (stereo not drawn)	13%
CC(C)Cc1csc(NC(=O)c2ccc(F)cc2)c1C(=O)O	-6%
COC(=O)c1c(SC)nc2ccccc2c1OCc1cccc(C)c1	7%
COc1ccc(S(=O)(=O)N2CCOC2CNC(=O)C(=O)NCc2ccncc2)cc1C (stereo not drawn)	-12%
CCCN1CNc2c(c(=O)[nH]c(=O)n2CCc2ccc(OC)c(OC)c2)C1	-11%
CC(=O)c1ccc(N2CCN(C(=O)c3ccc(S(=O)(=O)NCc4ccco4)cc3)CC2)cc1	1%
CC(=O)Nc1ccc(S(=O)(=O)NCCC(=O)NNC(=O)c2ccncc2)cc1	-2%
COc1ccc(OCC(=O)Nc2c(C(=O)N3CCN(c4ccccc4)CC3)oc3ccccc23)cc1	7%
O=C1Nc2ccccc2O/C1=C\c1ccccc1Br	-12%
O=C(CSc1nnc(-c2ccco2)n1Cc1ccco1)NCc1ccccc1	1%
CC(=O)N1c2ccc(S(=O)(=O)NCC3CCC(C(=O)Nc4cccc(C)n4)CC3)cc2CC1C (stereo not drawn)	?
CC(C)(C)n1nnnc1C(c1ccncc1)N1CCN(C2CCCCC2)CC1 (stereo not drawn)	-7%
COC(C[C@H]1O[C@H]1[C@H](O)COCc1ccccc1)OC	0%

Shown with the structure last: 16 of the compounds above.
| VDR inh | Compound |
| --- | --- |
| -5% | Cc1cccc(S(=O)(=O)c2c(N)n(/N=C/c3ccccc3)c3nc4ccccc4nc23)c1 |
| 4%&7% | CCN(CC)CC(C)CNC(=O)CN1C(=O)CSc2ccc(S(=O)(=O)N3CCOCC3)cc21 (stereo not drawn) |
| 6% | CCOc1ccc(NC(=O)Cc2ccc(S(=O)(=O)N3CCOCC3)s2)cc1OCC |
| 13% | CCC(C)NC(=O)CNC(=S)N(Cc1ccccc1F)C1CCCCC1 (stereo not drawn) |
| -6% | CC(C)Cc1csc(NC(=O)c2ccc(F)cc2)c1C(=O)O |
| 7% | COC(=O)c1c(SC)nc2ccccc2c1OCc1cccc(C)c1 |
| -12% | COc1ccc(S(=O)(=O)N2CCOC2CNC(=O)C(=O)NCc2ccncc2)cc1C (stereo not drawn) |
| -11% | CCCN1CNc2c(c(=O)[nH]c(=O)n2CCc2ccc(OC)c(OC)c2)C1 |
| 1% | CC(=O)c1ccc(N2CCN(C(=O)c3ccc(S(=O)(=O)NCc4ccco4)cc3)CC2)cc1 |
| -2% | CC(=O)Nc1ccc(S(=O)(=O)NCCC(=O)NNC(=O)c2ccncc2)cc1 |
| 7% | COc1ccc(OCC(=O)Nc2c(C(=O)N3CCN(c4ccccc4)CC3)oc3ccccc23)cc1 |
| -12% | O=C1Nc2ccccc2O/C1=C\c1ccccc1Br |
| 1% | O=C(CSc1nnc(-c2ccco2)n1Cc1ccco1)NCc1ccccc1 |
| ? | CC(=O)N1c2ccc(S(=O)(=O)NCC3CCC(C(=O)Nc4cccc(C)n4)CC3)cc2CC1C (stereo not drawn) |
| -7% | CC(C)(C)n1nnnc1C(c1ccncc1)N1CCN(C2CCCCC2)CC1 (stereo not drawn) |
| 0% | COC(C[C@H]1O[C@H]1[C@H](O)COCc1ccccc1)OC |

Additional structures
SMILES	VDR inh
COc1ccc(NC(=O)Nc2ccccc2C(=O)N2CCCC2)cc1	13%
CCCn1nc(C(=O)NC2CC2)c2ccccc2c1=O	-1%
CN1C(=O)C[C@@H](C(=O)N[C@@H](Cc2cnc[nH]2)C(=O)N2CCC[C@H]2C(N)=O)NC1=O	-11%
COc1ccc2[nH]c3c(c2c1)CCN1C(=O)C(CC(=O)NCCN2CCOCC2)C[C@H](C(=O)N(C(C)C)C(C)C)[C@@]31C (stereo partly drawn)	-11%
c1ccc(CNn2c(N3CCOCC3)nc3ccccc32)cc1	-1%
c1ccc(CNc2ccc(N3CCOCC3)cc2)cc1	?
O=C(NCCCN1CCCC1)Nc1ccccc1[N+](=O)[O-]	1%
CCCc1ccc(C#N)c(SC2CC(=O)N(c3ccc(OC)cc3)C2=O)n1 (stereo not drawn)	6%
Cc1cc(N=Cc2c(O)ccc3ccccc23)no1	2%
O=C(NCCCN1CCOCC1)C(=O)NCc1ccccc1	-15%
CCCc1nn2c(=O)cc(COC(=O)c3ccc(NC(=O)C(C)Oc4ccccc4)cc3)nc2s1 (stereo not drawn)	-1%
Cc1cc(Oc2ccc(C)c(Cl)c2)nc(SCC(=O)c2ccccc2)n1	8%
COc1ccccc1/C=C(\C#N)C(=O)c1cccn1C	?
COc1ccc(CCNC(=O)Cc2c(C)c3c(cc(C)c4c(C)coc43)oc2=O)cc1	1%
Cc1cc(=O)oc2cc(NC(=S)NCc3ccccn3)ccc12	2%
CCC(C)NC(=O)C(Cc1ccccc1)NS(=O)(=O)c1cccc2nsnc12 (stereo not drawn)	-19%
O=C(CCNC(=O)c1ccc([N+](=O)[O-])cc1)NCc1ccccc1	-10%
COCCN(C(=O)COC(=O)C1CCC(C(C)(C)C)CC1)c1c(N)n(Cc2ccccc2)c(=O)[nH]c1=O (stereo not drawn)	11%
O=C(CSc1nnnn1C1CCCCC1)NCc1cccc(C(=O)O)c1	-12%
COc1cc(C(=O)NCCN2C(=O)S/C(=C\c3cccs3)C2=O)cc(OC)c1OC	-2%
COc1ccc2c(c1)CC(C(=O)NCCN1CCN(c3cccc(C)c3C)CC1)CO2 (stereo not drawn)	-2%
O=c1cc(C(F)(F)F)nc(-c2ccccc2OC(F)(F)F)[nH]1	2%
COc1ccccc1Nc1cc(C(=O)NCCCN2CCOCC2)c2ccccc2n1	-3%
COc1ccc(OC)c(NC(=O)C(C)SCc2nc3sc(C)c(C)c3c(=O)[nH]2)c1 (stereo not drawn)	19%
O=C(NNC(=O)c1ccccc1OCc1ccc(F)cc1)c1ccncc1	9%
C/C=C/C(=O)N1CC2(CC(c3cccc(NC(=O)COc4ccc(Cl)cc4)c3)=NO2)C[C@@H]1C(N)=O (stereo partly drawn)	4%
CCN(CC)S(=O)(=O)c1cccc(NC(=O)c2ccc(S(=O)(=O)N3CCCC3)cc2)c1	15%
CCOC(=O)C1=NN(c2ccc(Cl)cc2)C(=O)C1	3%
CC(C)Oc1ccc(C(=O)Nc2ccc3oc(-c4ccncc4)nc3c2)cc1	-4%
C=CCn1c(SCc2ccc(C(=O)O)cc2)nc2sc(C)c(C)c2c1=O	?
Nc1ccc2nc(-c3ccccc3)sc2c1	-14%
COc1ccccc1C(c1nnnn1Cc1ccccc1)N1CCN(C2CCCC2)CC1 (stereo not drawn)	-14%
Cc1cc2nc(SCCOC(=O)Nc3ccc(Cl)cc3)nc(C)c2cc1C	3%
COc1cc(C2/C(=C(\O)c3ccc4c(c3)CC(C)O4)C(=O)C(=O)N2CCCn2ccnc2)ccc1O (stereo not drawn)	-9%
CCN(CC)C(=O)N(CC)Cc1ccccc1	-3%
O=C(c1ccncc1)N1CCN(S(=O)(=O)c2cccc([N+](=O)[O-])c2)CC1	-13%
COc1cc(OC)c2ccc(=O)oc2c1C(CCN1CCOCC1)c1ccc(N(C)C)cc1 (stereo not drawn)	11%
COc1ccccc1NC(=O)COc1ccc(/C=N/n2cnnc2)cc1OC	-17%
CC(=O)N1c2ccc(S(=O)(=O)NCCC(=O)N3CCCC(C)C3)cc2CC1C (stereo not drawn)	?
COc1ccc(NC(=S)N/N=C/c2ccc(F)c(F)c2)cc1	1%
CC(NC(=O)c1ccc(CS(C)(=O)=O)cc1)C1CC2CCC1C2 (stereo not drawn)	-3%
O=C(CN1CCN(c2ccc([N+](=O)[O-])cc2)CC1)Nc1nccs1	-21%
CC(C)(C)N(Cc1ccccc1)C(=O)COC(=O)c1ccc([N+](=O)[O-])o1	11%
CN(C)CC1CCCCC1OC(=O)/C=C/c1ccccc1 (stereo not drawn)	28%
CCn1cc(C(=O)NCCc2ccccc2)c(=O)c2cc(F)c(N3CCN(C)CC3)cc21	3%
Cc1ccc([N+](=O)[O-])cc1NC1CC(O)C(CO)O1 (stereo not drawn)	-15%
COC(=O)Nc1nc2ccc(C(=O)c3cccs3)cc2[nH]1	2%&-13%&1%&7%
CNCCCNC(=O)c1ccc(/C=N/O)nc1	17%
CCN(Cc1ccncc1)Cc1ccc(Br)cc1	-9%
CC(OC(=O)c1ccc(OCC2CCCO2)cc1)C(=O)N(C)Cc1ccccc1 (stereo not drawn)	4%
O=C(Cn1cnc2c(nnn2Cc2ccccc2)c1=O)Nc1ccc2c(c1)OCCO2	16%
COc1cccc(NS(=O)(=O)c2ccc3[nH]cc(C(=O)NC(C)c4ccccc4)c(=O)c3c2)c1 (stereo not drawn)	?
O=C1NCCN1C(=O)N(c1ccccc1)c1ccccc1	20%
COc1ccccc1NC(=O)CSc1nnc(-c2ccco2)o1	11%
O=C(Nc1ccccc1N1CCCCC1)c1cccc(Cl)c1	7%
Cn1c(=O)c2cc(S(=O)(=O)NC(C(=O)Nc3cccc(F)c3)c3ccccc3)ccc2n(C)c1=O (stereo not drawn)	-7%
Cc1cc2[nH]c(=O)c(=O)[nH]c2cc1S(=O)(=O)N(C)C1CCCCC1	1%
CCn1c(SCc2ccccc2)nnc1C1CCCCC1	-19%
CCOc1ccc(N(CC(=O)NCc2ccccc2)S(C)(=O)=O)cc1	5%
O=C(CSc1nnc(-c2cccnc2)o1)Nc1ccccc1F	11%
The list goes on:
SMILES	VDR inh
O=C(COC(=O)C1CCN(S(=O)(=O)c2ccc3c(c2)OCCO3)CC1)Nc1ccc(C(F)(F)F)cc1	0%
COc1cccc(-c2cccc(NC(=O)C3CCN(Cc4nccs4)CC3)c2)c1	-4%
CCCOc1ccc(NC(=O)C2CC(=O)N(C(C)C)C2)cc1 (stereo not drawn)	6%
O=C(O)C(Cc1cn[nH]n1)=NO	-9%
CCCN1CCC(NC(=O)c2cccc(Oc3ccccc3)c2)CC1	19%
O=C(COC(=O)CCN=C1NS(=O)(=O)c2ccccc21)NNC(=O)c1ccccc1	-15%
CCNC(=S)Nc1ccc(Oc2ccccc2)cc1	1%
Cc1ccc2nc(-c3cccnc3)cc(C(=O)Nc3ccccc3[N+](=O)[O-])c2c1	-5%
CC(C)c1cnc2c(c1SCc1ccc([N+](=O)[O-])cc1)c(=O)n(C)c(=O)n2C	-7%
COc1ccccc1N(C)S(=O)(=O)c1ccc(C)c(C(=O)N2CCCCCC2)c1	-23%
CCc1ccc(NC(=O)CSc2nc3n[nH]c(C)c3c(=N)n2-c2cccc(OC)c2)cc1	-5%
O=C1C=CC(=O)N1c1ccc(N2CCCCC2)cc1	18µM*
O=C(c1ccc2c(c1)N(Cc1ccccc1F)C(=O)c1ccccc1S2(=O)=O)N1CCOCC1	-5%
O=C(Nc1ccccc1N1CCOCC1)C1=NN(c2c(F)c(F)cc(F)c2F)C(=O)CC1	3%
Cn1cc(S(=O)(=O)N2CCCC2)cc1C(=O)NCc1ccccc1Cl	-18%
O=S(=O)(Nc1ccc(O)c(CN2CCCCC2)c1)c1ccccc1	9%
COC(c1ccccc1)c1nnc(CCC(=O)N(C)CCCC2CCCC2)o1 (stereo not drawn)	-11%
Cc1ccc(C(C)C)c(OCC(=O)Nc2ccc(N3CCOCC3)cc2N2CCOCC2)c1	-13%
CCC(=O)Nc1cc(C)c(O)c(-c2nc3ncccc3o2)c1	2%
N=C(N)SCc1cn(-c2ccccc2)nc1-c1ccc(Br)cc1	1%
CC(C)CN1C(=O)NC2(CCCc3ccccc32)C1=O (stereo not drawn)	-9%
Cc1ccc(NC(=O)CCNS(=O)(=O)c2ccc3c(c2)CCC(=O)N3)cc1	12%
CCN(CC)S(=O)(=O)c1cccc(C(=O)N/N=C/c2ccccn2)c1	-9%
CCOc1ccc(NC(=S)N2CCC(C(=O)c3ccc(F)cc3)CC2)cc1	-10%
CCN1CCN(CCNC(=O)c2cn(Cc3ccccc3F)nn2)CC1	5%
COc1ccc(OC)c(NC(=O)c2cc3cc4ccc(C)cc4nc3s2)c1	0%

An excerpt from above in order of SMILES length, descending:
SMILES	VDR inh
O=C(NNC(=O)c1ccccc1OCc1ccc(F)cc1)c1ccncc1	9%
O=C(CSc1nnnn1C1CCCCC1)NCc1cccc(C(=O)O)c1	-12%
COC(=O)c1c(SC)nc2ccccc2c1OCc1cccc(C)c1	7%

Screening data (PubChem)
